Compound activity deposited in PubChem BioAssay by National Center for Advancing Translational Sciences (NCATS).
VDR inhibitor: Inhibitors of the vitamin D receptor (VDR): qHTS; Vitamin D3 receptor (Homo sapiens), P11473; VDR-SRC2-3 peptide fluorescence polarization, 2 h; Potency, µM, inactives show max response, negative = inhibition, hits mostly inhibitors; 0.93% of 400,000 active; active = well fitted inhibition curve with a large enough effect; inconclusive = small, poorly fitted or top-dose-only effect, or another doubt; inactive = no such curve, though single readings can be large or run the other way; also: series mostly up to about 120 µM
Target sequence (P11473 whole entry, looked up): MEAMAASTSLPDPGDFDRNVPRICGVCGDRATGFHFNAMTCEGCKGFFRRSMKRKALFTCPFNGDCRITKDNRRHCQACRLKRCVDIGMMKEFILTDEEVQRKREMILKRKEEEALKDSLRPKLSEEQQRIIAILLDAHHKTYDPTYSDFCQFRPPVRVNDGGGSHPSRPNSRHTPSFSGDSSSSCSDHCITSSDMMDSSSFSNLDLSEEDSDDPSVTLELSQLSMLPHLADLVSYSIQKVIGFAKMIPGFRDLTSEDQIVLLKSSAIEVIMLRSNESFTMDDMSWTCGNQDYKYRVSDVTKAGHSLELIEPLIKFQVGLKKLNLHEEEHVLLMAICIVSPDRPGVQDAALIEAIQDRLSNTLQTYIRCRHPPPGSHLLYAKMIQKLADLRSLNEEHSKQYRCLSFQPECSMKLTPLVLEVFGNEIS
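Measured by FP: displacement of SRC2-3 coactivator peptide from VDR by library compounds, following a two-hour ambient incubation.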
Numbers without * were called inactive; ? = inconclusive; & = joins results of further samples; [ ] = another dose, or the depositor's remark. % is scaled to controls: 0 for no effect and ±100 for the full control effect; potency is read from the fitted curve at half-maximal effect. Some of the compounds tested; count on the stated rates, not on these rows.

SMILES,VDR inhibitor
O=C(CSc1ccc([N+](=O)[O-])cc1)Nc1nnc(C2CC2)s1,-1%
Cc1ccccc1NC(=O)C1COc2ccccc2O1 (stereo not drawn),-8%
CCOC(=O)C1=C(CS(=O)(=O)c2ccc(F)cc2)NC(=O)NC1c1ccc(OCC)c(OC)c1 (stereo not drawn),-1%
COc1ccc(Cc2nnc(SCc3ccc([N+](=O)[O-])cc3)o2)cc1,-6%
CC(C)CNC(=O)CSc1ccc(S(=O)(=O)N(C)C2CCCCC2)cn1,1%
O=C(NCc1cccs1)c1cccnc1Cl,-11%
Cc1ccc(S(=O)(=O)NCCCNc2ccc([N+](=O)[O-])cc2)cc1,-2%
Cc1cccc(NC(=O)CSc2n[nH]c(-c3ccncc3)n2)c1C,-14%
CCc1nnc(NC(=O)c2cc(S(=O)(=O)N3CCN(c4ccccc4)CC3)ccc2Cl)s1,2%
O=C(O)C1C2C=CC3(CN(C4CCCC4)C(=O)C13)O2 (stereo not drawn),-11%
COc1ncc2nc(-c3cc(F)cc(F)c3)c(=O)n(CCc3ccccc3)c2n1,-3%
COCCN(C(=O)COC(=O)CCn1c(C)csc1=O)c1c(N)n(Cc2ccccc2)c(=O)[nH]c1=O,10%
C/C(CC(=O)NC(C)(C)C)=N\NC(=O)c1ccccc1N,-17%
O=C(O)CCSc1nnc(-c2ccc3c(c2)OCO3)o1,-7%
COc1ccc(CCOC(=O)c2ccc(N)c([N+](=O)[O-])c2)cc1,-2%
CC(=O)OC(C(=O)N1CCN(c2ccccc2F)CC1)c1ccccc1 (stereo not drawn),3%

Three entries out of the list above, sorted by the value under VDR inhibitor, lowest first.
Molecule | VDR inhibitor
O=C(O)C1C2C=CC3(CN(C4CCCC4)C(=O)C13)O2 (stereo not drawn) | -11%
O=C(O)CCSc1nnc(-c2ccc3c(c2)OCO3)o1 | -7%
CC(=O)OC(C(=O)N1CCN(c2ccccc2F)CC1)c1ccccc1 (stereo not drawn) | 3%

Further entries.
SMILES,VDR inhibitor
Cc1cc(=O)[nH]c2c(C)cc(S(=O)(=O)NCc3ccccc3)cc12,-7%
O=C1c2ccccc2C(=O)N1CCCCN(C(=O)c1cc([N+](=O)[O-])ccc1Cl)c1ccc(Cl)cc1,-8%
O=C(O)CSCC(=O)N1CCN(c2ncnc3scc(-c4ccccc4)c23)CC1,-10%
Oc1ccc2oc3c(c2c1)CCCC3,-3%
O=c1nc(-c2ccccc2)cn[nH]1,7%
CCCCc1ccc(NS(=O)(=O)c2ccc(N3CCCCS3(=O)=O)cc2)cc1,5%
CSc1nnc(-c2ccc(C(F)(F)F)nc2C)o1,0%
O=C(Cn1c(=O)nc(-c2ccccc2)c2cc(Cl)ccc21)NCc1ccccc1,0%

Reprinted from the part before: two entries, then new ones.
SMILES,VDR inhibitor
CSc1nnc(-c2ccc(C(F)(F)F)nc2C)o1,0%
O=C(Cn1c(=O)nc(-c2ccccc2)c2cc(Cl)ccc21)NCc1ccccc1,0%
CC1(C)CC(=O)C=C(NNC(=O)C2CCCCC2)C1,-20%
Oc1ccccc1C1SC(c2ccccc2O)SC(c2ccccc2O)S1 (stereo not drawn),4%
C#CCOCCOCCOCCNc1nc(N2CCN(C(=O)Cn3cc(CC(C)O)nn3)CC2)nc(N2CCN(C(=O)[C@H](CCCCN)n3cc(CCCC)nn3)CC2)n1 (stereo partly drawn),5%
COc1ccccc1N1CCN(c2nccc(C)n2)CC1,4%
NC(=O)CSc1nnc2ccc(-c3ccco3)nn12,2%
COc1ccc(CC(=O)NNC(=O)COc2ccc(F)cc2)cc1S(=O)(=O)N1CCOCC1,-6%
N#C/C(=C\c1cccs1)C(=O)NCc1ccccc1,45µM*
CCN=C1SC(CC(=O)Nc2ccccc2)C(=O)N1CC (stereo not drawn),-5%&4%
CS(=O)(=O)c1cccc(NC(=O)C2CC2)c1,-18%
O=C(Nc1nnc(Cc2ccccc2)s1)c1cnccn1,-19%
OC(C#Cc1ccccn1)c1cccs1 (stereo not drawn),50µM*
Fc1ccc(C2CC(c3ccco3)=NN2c2ccccc2)cc1 (stereo not drawn),-4%
O=S(=O)(c1ccc(OCC(O)CNC23CC4CC(CC(C4)C2)C3)c(Cl)c1)N1CCOCC1 (stereo not drawn),10%
O=C(Nc1ccccc1C(=O)NCCc1ccccc1)c1ccco1,-4%
CNC(=O)COc1ncnc2sc(C)c(C)c12,3%
Clc1ccc(CNC2CCN(Cc3ccccc3)CC2)cc1,-20%
CNC(=O)COC(=O)/C=C/c1ccco1,4%
Cc1cccc(NC(=O)C2CCCN(S(=O)(=O)c3ccc4c(c3)oc(=O)n4C)C2)c1 (stereo not drawn),-3%&-5%
Cc1cc(Cl)ccc1OCC(=O)Nc1c(C(=O)c2ccccc2)oc2ccccc12,-17%
Cc1cc(NC(=O)CSc2cn(CCNC(=O)c3ccc(F)cc3)c3ccccc23)no1,2%
CC(C)C(NC(=O)c1ccc(F)cc1)C(=O)OCC(=O)N1CC(=O)Nc2ccccc21 (stereo not drawn),-11%
CCCCC/C=C\C\C=C/C=C/C=C/[C@@H](SC[C@H](N)C(=O)O)[C@@H](O)CCCC(=O)O,1%
O=C(O)CCCC(=O)Nc1nc(-c2ccccc2)cs1,2%
CCCCCCCCCC(=O)N/N=C/c1ccc(C)s1,18%
O=C(O)c1ccc(NC(=O)c2ccccc2NC(=O)c2ccccc2Br)cc1,11%
Cc1ccccc1Oc1ccc(-c2nc(N)nc(N)n2)cc1,-5%
COc1ccc(NC(=O)C(CCS(C)(=O)=O)NC(C)=O)cc1 (stereo not drawn),-16%
COCc1cc(C)nc(N/N=C/c2ccc(Cl)c(Cl)c2)c1C#N,14%
CC1CCN(C(=O)Oc2ccccc2)CC1,9%
CC(C)CCN1CCN(Cc2cn[nH]c2C2CCCCC2)CC1CCO (stereo not drawn),-8%
O=C(OCC(=O)N1CCN(C(=O)c2ccco2)CC1)c1sc2ccccc2c1Cl,13%
CC1CCCN(C(=O)c2cc3c(-c4ccc(Cl)cc4)nn(C)c3s2)C1 (stereo not drawn),-4%
O=C(Nc1ccnn1C1CCN(C(=O)c2cc(Cl)ccc2F)CC1)C1CCOC1 (stereo not drawn),3%
COCCCNC(=O)CCc1nc(-c2ccccc2)no1,-3%
COc1ccc(CCNC(=O)c2ccc(OC)c(OC)c2)cc1OC,4%
Cc1cc(OCC(=O)NCCc2ccc(S(N)(=O)=O)cc2)c2c(C)cc(=O)oc2c1,2%
O=C(NN1CC(C(=O)OCc2ccc(Cl)cc2Cl)CC1=O)c1ccccc1 (stereo not drawn),13%
O=C(c1ccc(Nc2nc3ccccc3n3nnnc23)cc1)N1CCN(c2ccc(F)cc2)CC1,-3%
Cc1sc2ncnc(Sc3ccccc3C(=O)Nc3ccc(Br)cc3)c2c1C,?
NC(=O)c1ccccc1NC(=O)Nc1cccc(Cl)c1,15%
O=C(COc1ccccc1)Nn1cnc2ccccc21,1%
CN1CCN(Cc2nc(Cc3cccc(F)c3)no2)CC1c1ccccc1 (stereo not drawn),15%
COC(=O)/C(=C/c1cn(C(C)=O)c2ccccc12)[N+](=O)[O-],-4%
O=C(COC(=O)c1ccccc1Cl)Nc1cccnc1Cl,-10%
CCOc1ccc(NC(=O)CN(C)C(=O)CCCc2nc3ccccc3c(=O)[nH]2)cc1OCC,-11%
Cc1ccn2c(=O)nc(SCC(=O)N3CCN(c4ccccc4)CC3)nc2c1,-3%
O=C(O)CCC(=O)Nc1ccc(C(=O)N2CCCCC2)cc1,0%
CCC1Oc2ccccc2N(CC(=O)NCCCN2CCCCC2C)C1=O (stereo not drawn),6%
CCOc1ccc(NC(=O)[C@@H]2CCCN2C(=O)c2cccs2)cc1S(=O)(=O)N1CCOCC1,-9%
O=C(NCCc1ccc(F)cc1)c1coc(=O)c(Br)c1,0%
Cc1ccc(S(=O)(=O)N(CC(O)CN2CCCCC2)c2cccc([N+](=O)[O-])c2)cc1 (stereo not drawn),-9%
CC1(C)Cc2c(sc3c2c(=O)n(-c2ccc(Cl)cc2)c(=O)n3CC(N)=O)CO1,2%
CSc1nsc(SCC(=O)Nc2ccc(F)cc2F)n1,13%
CCc1ccccc1NC(=O)CN1CCN(CC(=O)Nc2ccc(-c3ccccc3)cc2)CC1,-6%
COc1ccc(S(=O)(=O)c2cc3cc(OC)ccc3oc2=O)cc1,-13%
O=C(CSc1nnc(CNC(=O)c2ccccc2)o1)NCc1ccccc1Cl,-13%

Going on with the list:
SMILES,VDR inhibitor
Cc1ccc(S(=O)(=O)Oc2cccc(/C=N/n3cnnc3)c2)cc1,?
CC(C)OCCCn1c(-c2ccc(Br)cc2)c[nH]c1=S,-9%
COc1cnc(-c2ccccn2)nc1Oc1ccc(Cl)cc1,12%
O=C(Nc1ccc[n+](CC(=O)c2cccc3ccccc23)c1)c1ccccc1,-10%
CCOCCc1nn2c(=O)cc(COC(=O)c3ccco3)nc2s1,-3%
CC1CN(Cc2cnc(Cl)s2)CC(C)O1 (stereo not drawn),-9%
CCc1ccccc1Nc1ncnc2c1cnn2-c1ccc(C)cc1C,11%
CC(C(=O)Nc1ccc(F)c(Cl)c1)N1Cc2ccccc2C1=O (stereo not drawn),12%
CCCn1nnc(NC(=O)Cc2ccccc2)n1,8%
Cc1ccc(S(=O)(=O)CCC(=O)Nc2ccc(F)cc2)cc1,4%
CCOc1ccc(NC(=O)c2nnn(CC(=O)Nc3ccccc3OC)c2N)cc1,-6%
Cc1ccn2cc(-c3cccc(S(=O)(=O)N4CCCCC4)c3)nc2c1,?
Cc1ccc(C(=O)NC(C)c2ccccc2)cc1S(=O)(=O)N1CCOCC1 (stereo not drawn),-4%
COc1ccc(-n2nnnc2SCC(=O)Nc2ccccc2N2CCOCC2)cc1,-10%
O=C1CCCC(O)=C1C=NCCc1ccccc1,-20%
CCN1/C(=C2/SC(=S)N(C)C2=O)C=Cc2cc(C)ccc21,31%[activator]
O[Si](CCCN1CCCCC1)(c1ccc(F)cc1)C1CCCCC1 (stereo not drawn),-8%&-27%
CC1CN(C2=Nc3cccc4cccc2c34)CC(C)O1 (stereo not drawn),-25%
CCn1c(=O)cc(SCC(=O)NCCc2ccc(Cl)cc2)c2ccccc21,2%
Cc1ccc(CN2CC(C(=O)Nc3ccccc3N3CCCC3)CC2=O)cc1 (stereo not drawn),8%
CCn1c(O)c(C(C#N)=C2N=c3ccccc3=N2)c2ccccc21,14%
C=CCOc1ccccc1NC(=O)CN1C(=O)CNC1=O,12%
Cc1ccnc(N/N=C/c2ccco2)n1,-1%
Cc1ccc(N2C(=O)C3C4C=CC(CNC(=S)Nc5cccc(Cl)c5)(O4)C3C2=O)cc1 (stereo not drawn),?
COc1ccc(NC(=O)COC(=O)c2c(-c3ccccc3)noc2C)cc1,20%
CCCc1nnc(-c2cc(OC)c(OC)c(OC)c2)o1,-9%
C[C@@H]1CN([C@H](C)CO)C(=O)c2cc(NC(=O)Nc3ccc(C(F)(F)F)cc3)ccc2O[C@H]1CN(C)S(=O)(=O)c1ccc(Cl)cc1,-8%
C=C(C)Cn1c(CCNC(=O)C(C)C)nc2ccccc21,1%
COc1cccc(C(=O)Nc2cc(C(=O)NCCc3ccccc3)ccc2Cl)c1,12%
CC[C@H](C)[C@H](NC(=O)[C@H](CC(C)C)NC(=O)[C@@H](N)CO)C(=O)NCC(=O)N[C@@H](CCCCN)C(=O)N[C@H](C(=O)O)C(C)C,-3%
COc1ccc(N(CC(=O)NC2CCCC2)C(=O)Cn2nnc(-c3ccc(OC)c(OC)c3)n2)cc1,-12%
CCCOc1ccc(C2C3=C(CCCC3=O)N(CC(=O)O)C3=C2C(=O)CCC3)cc1OCC,-9%

2 entries from above in another layout.
COc1cccc(C(=O)Nc2cc(C(=O)NCCc3ccccc3)ccc2Cl)c1
- VDR inhibitor = 12%

COc1ccc(N(CC(=O)NC2CCCC2)C(=O)Cn2nnc(-c3ccc(OC)c(OC)c3)n2)cc1
- VDR inhibitor = -12%

(listing goes on)
SMILES,VDR inhibitor
Cc1ccc(C)c(CN2C(=O)c3ccccc3S(=O)c3ccc(C(=O)N4CCN(c5cccc(Cl)c5)CC4)cc32)c1 (stereo not drawn),-10%
COc1cc(=O)[nH]c(=O)n1CC(=O)c1ccccc1,16%
Cc1ccc(NC2CCCN(C(=O)c3cnsn3)C2)cc1C (stereo not drawn),8%
C=CCOc1ccccc1CN(C(=O)CCl)c1ccc2c(c1)OCO2,?
COC(=O)c1ccc(N2CCCCC2)c(NC(=O)c2ccco2)c1,-4%
O=C1CC[C@@H]2CC(N3CCN(c4ccccc4)CC3)C[C@@H]3CCN1[C@H]23 (stereo partly drawn),5%
O=C(O)c1sccc1S(=O)(=O)N1CCN(c2ccc(C(F)(F)F)cn2)CC1,-16%
COc1ccc(C(=O)C[n+]2cccc(C)c2C)cc1[N+](=O)[O-],-14%
CN(CCNC(=O)C1CCN(S(=O)(=O)c2cnc[nH]2)CC1)Cc1ccccc1,-9%
Cc1cccc(NC(=O)c2cccc(C(=O)Nc3cccc(C)c3)c2)c1,-8%
Cc1ccc(Cl)cc1N1CCN(C(=O)CCS(=O)(=O)c2ccc3c(c2)oc(=O)n3C)CC1,9%
CCC(=O)N1CCc2cc(Br)c(S(=O)(=O)CCC(=O)NCCc3ccccc3)cc21,12%
